# Rango complex inh = qHTS Assay for Inhibitors of Rango (Ran-regulated importin-beta cargo) - Importin beta complex formation; AID 540263, 2011; actives 0.031% (n = 340,000); Rango CFP/YFP FRET sensor + importin beta, 45 min; Potency, µM (highest dose often 92.2 µM), without a hit: at the highest dose inhibition of complex formation; Importin subunit beta-1 (Homo sapiens), Q14974; active = rising FRET ratio curve, often small or poorly fitted; inconclusive = mostly compound fluorescence or quenching in the first reads; inactive = flat curves in all reads;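 also: potency is read from the fitted curve at half-maximal effect; 0% = DMSO wells and 100% = buffer wells lacking importin beta; nearly all actives have a fitted effect of over 15% in size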
# Target sequence (Q14974 whole entry, looked up): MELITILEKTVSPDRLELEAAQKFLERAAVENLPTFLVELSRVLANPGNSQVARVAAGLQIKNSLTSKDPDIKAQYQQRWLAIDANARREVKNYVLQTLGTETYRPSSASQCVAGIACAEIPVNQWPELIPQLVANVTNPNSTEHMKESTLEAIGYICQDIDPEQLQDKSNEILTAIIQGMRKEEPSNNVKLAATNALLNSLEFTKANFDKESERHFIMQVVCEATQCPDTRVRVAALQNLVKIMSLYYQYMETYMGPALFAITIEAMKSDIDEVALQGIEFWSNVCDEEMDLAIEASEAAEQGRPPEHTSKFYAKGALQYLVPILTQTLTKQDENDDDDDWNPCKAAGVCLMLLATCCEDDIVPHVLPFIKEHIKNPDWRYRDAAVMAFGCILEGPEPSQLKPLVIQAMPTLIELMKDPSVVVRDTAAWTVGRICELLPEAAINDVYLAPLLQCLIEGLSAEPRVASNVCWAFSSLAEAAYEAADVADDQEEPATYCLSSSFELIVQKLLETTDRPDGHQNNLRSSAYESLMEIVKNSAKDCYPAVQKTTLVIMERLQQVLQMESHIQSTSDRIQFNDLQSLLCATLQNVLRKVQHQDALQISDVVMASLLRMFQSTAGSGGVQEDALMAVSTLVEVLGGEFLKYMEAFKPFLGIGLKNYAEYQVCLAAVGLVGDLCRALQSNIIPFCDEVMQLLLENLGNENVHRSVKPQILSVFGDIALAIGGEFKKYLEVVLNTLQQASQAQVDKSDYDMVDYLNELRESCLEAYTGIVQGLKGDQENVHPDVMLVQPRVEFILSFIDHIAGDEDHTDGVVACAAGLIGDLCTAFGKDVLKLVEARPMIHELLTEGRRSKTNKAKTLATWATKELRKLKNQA
#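 Inhibition scored from the CFP 486 nm/YFP 530 nm FRET ratio 45 min after adding 0.125 microM importin beta to 50 nM Rango biosensor preincubated 5 min with compound (room temperature, PBS with DTT, Tween-20, BSA). No-importin wells as positive control.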
# Rango dissoc inh = qHTS Assay for Inhibitors of RanGTP induced Rango (Ran-regulated importin-beta cargo) - Importin beta complex dissociation. Snurportin-1 (Homo sapiens) + GTP-binding nuclear protein Ran (Homo sapiens) + Importin …. Potency, µM (doses to about 46.1 µM), without a hit: at the highest dose activity change, negative = inhibition. Biochemical FRET Rango-importin beta, RanGTP-induced dissociation. actives 0.071% (n = 340,000); active means falling FRET ratio curve, often poorly fitted, with flat reads before Ran was added; inconclusive means other falling curves, or compound fluorescence or quenching; inactive means flat or rising ratio curve;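 also: potency is read from the fitted curve at half-maximal effect; % of control where 0% means no effect; nearly all actives have a fitted effect of over 45% in size; -100% = wells without RanGTP and RCC1; the record marks most hits as doubtful in a second field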
#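 Two FRET readings bracket the reaction: one 5 min after compound meets Rango–importin beta, another 45 min after RanGTP-RCC1 (0.6 uM Ran, 0.2 uM RCC1, 2 mM GTP) is added. Only the second defines inhibition.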
# GLA inh pH 4.5 = qHTS Assay for Inhibitors of Human alpha-Galactosidase at pH 4.5; Alpha-galactosidase A (Homo sapiens), P06280; purified enzyme, 4-MU-alpha-Gal fluorescence, pH 4.5; activity change, negative = inhibition, % at 105 µM; 230,000 tested, under 10 active; AID 1467, 2008; inconclusive = small, poorly fitted or top-dose-only inhibition, or a rising curve; inactive = flat fitted curve, though single readings scatter; no compound was filed as active;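 also: 0% = full activity with enzyme and -100% = basal without enzyme; dose as in the result columns while the protocol names 77 µM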
# miR-21 FLuc = qHTS Assay for Modulators of miRNAs and/orActivators of miR-21; Potency, µM (titrated, usually from 38.3 µM), for inactives: top-dose reporter change, positive = more light; HeLa miR-21 FLuc reporter, luciferase, 48 h; 340,000 tested, under 10 active; active = well fitted rising curve with a large enough effect; inconclusive = small, poorly fitted or top-dose-only effect; inactive = no such curve, though single readings can be large or run the other way;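 also: % of control where 0% means no effect; miR-21 action dims this reporter so a rising signal means less miR-21 action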
#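 HeLa miR-21-FLuc reporter line, endogenous miR-21; 2000 cells/well in DMEM/10% FBS; compound titration up to ~40uM final, 48 h, 37 degree Celsius; luciferase detection reagent, 15 min lysis, CCD luminescence.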
# * = called active by the depositor; ? = inconclusive; nt = no result given; & = joins results of further samples. An excerpt, so the mix of outcomes need not match the whole.
SMILES,Rango complex inh,Rango dissoc inh,GLA inh pH 4.5,miR-21 FLuc
Cc1cccc(NC(=O)c2cc(Cl)sc2Cl)c1C,1.8%,-5%,-1,-10%
CCOc1ccc(NC(=O)c2cc(S(=O)(=O)N3CCCCC3)c[nH]2)cc1,0.5%,-11%,nt,4%&1%
COc1ccc(-n2c(SCc3ccccn3)nc3c(c2=O)SCC3)cc1OC,0.5%,16%,2,6%
CCOC(=O)CSC1=NC(=O)/C(=C\c2ccc(OC(C)=O)cc2)S1,0.7%,15%,-4,-25%
CCn1c(-c2ccc(F)cc2)n[nH]c1=S,2.2%,0%,0,0%
COCCN(C(=O)c1csnn1)C(C(=O)NC1CCCCC1)c1ccc(Cl)cc1 (centres undefined),-2.3%,-8%,nt,-3%
CCOC(=O)c1[nH]c2ccc(OC)cc2c1NC(=O)OC,2.4%,13%,5,-1%
CCCc1nc(SCC(=O)NNC(=O)C2CCCCC2)c2ccccc2n1,-0.3%,-1%,0,0%
CC1(C)Cc2c(sc3nc(C4CCCCC4)n(N)c(=O)c23)CO1,4.8%,4%,-5,-1%
CCOC(=O)C1CCCN(C(=O)c2ccc(CNc3c(N4CCC(C)CC4)c(=O)c3=O)cc2)C1 (centres undefined),-0.5%,12%,10,-4%
CC(=O)c1ccc(N2CCN(C(=O)C3CCN(C(=O)Nc4ccccc4)CC3)CC2)cc1,0.3%,-14%,nt,nt
O=C(N/N=C/c1cn(Cc2ccccc2)c2ccccc12)c1cccnc1,4.2%,16%,-12,5%
CC(C)Cc1ccc(/C=C/C(=O)NC2CC2)cc1,0.9%,-6%,1,-52%
COC(=O)c1sc(NC(=O)COc2ccccc2OC)nc1C,-4.1%,-12%,-3,-14%
Oc1ccccc1N1CCN(c2nnnn2-c2ccccc2)CC1,-0.5%,36%,-3,-2%
Cc1cccc(N(CC(=O)NC2CCCC2)C(=O)c2csnn2)c1C,-3.4%,-1%,nt,-7%
CCN(CC)c1nc2c(c(=O)n(C)c(=O)n2C)n1CC(=O)c1ccccc1,0.7%,-7%,0,-10%
Cc1ccc(CN(C(=O)c2ccc([N+](=O)[O-])cc2)C2CCS(=O)(=O)C2)o1 (centres undefined),-7.6%,-4%,nt,0%
COc1cc2c(cc1OC)CN(C(=O)c1ccc(S(=O)(=O)N3CCCC3)cc1)CC2,0.5%,-11%,0,-1%
CC1CN(c2nnnn2-c2ccccc2)CC(C)O1 (centres undefined),1.1%,21%,-5,-4%
CCOCCCNC(=O)C(NC(=O)c1ccc2c(c1)OCO2)c1ccc(OC)cc1 (centres undefined),-3.1%,2%,1,-5%
COc1ccccc1NS(=O)(=O)c1ccc(C)c(C(=O)Nc2ccc(S(=O)(=O)Nc3onc(C)c3C)cc2)c1,-5.2%,23%,nt,nt
CCCCCOC(=O)C(C)Sc1n[nH]c(=O)[nH]c1=O (centres undefined),2.7%,2%,-3,-4%
CC(=O)Nc1ccc(C(=O)Nc2cccc(-c3cnc4ccccc4n3)c2)cc1,-1.3%,6%,-24,-9%
CC(C)CC1NC(=O)N(CC(=O)Nc2cccc(Br)c2)C1=O (centres undefined),2.2%,-5%,nt,nt
O=C(OCCCc1cc2ccccc2c(=O)o1)c1ccc(F)cc1,-2.7%,-6%,nt,nt
CCCCn1c(N)c(N(CC(C)C)C(=O)c2cc(=O)[nH]c3ccccc23)c(=O)[nH]c1=O,-4.2%,-1%,nt,nt
O=C(Cn1[nH]c(=O)c2ccccc2c1=O)NC1CCN(Cc2ccccc2)CC1,-7.4%,-7%,-13,-5%
O=C(N/N=C1\CCc2ccccc21)c1ccccc1Cl,0.6%,1%,-1,-68%
CCCC(=O)Nc1nc2ccc(OCC)cc2s1,-1.8%,14%,1,-58%
O=C(CN1CCN(S(=O)(=O)c2ccc(Br)cc2)CC1)Nc1ccccc1C(=O)c1ccccc1,-0.4%,-1%,-15,1%
COC(=O)c1[nH]c2ccccc2c1NC(=O)Oc1ccccc1,6.2%,-12%,-3,-22%
COc1cc(C(=O)NC(C)Cc2cccs2)cc(OC)c1OC (centres undefined),3.9%,11%,9,-1%
O=C(OC(C(=O)Nc1ccc(Cl)cc1C(F)(F)F)c1ccccc1)c1c(Cl)cccc1Cl (centres undefined),-0.7%,1%,-7,-8%
CCOc1ccccc1NC(=O)C1CCC(CNc2c(N3CCCCC3)c(=O)c2=O)CC1 (centres undefined),5.2%,-2%,5,1%
Nc1nc(Cn2nnc(-c3ccccc3Cl)n2)nc(N2CCOCC2)n1,-5.8%,1%,2,-23%
CCCNC(=O)c1ccc(N2CCC3(CC2)CC(c2cccc(Br)c2)=NO3)c(NC(=O)c2ccco2)c1,-1.8%,1%,nt,nt
Cc1ccc(NC(=O)COC(=O)CCC(=O)c2cccs2)cc1,-5.3%,15%,-11,-1%
COc1ccc(/C=N/Nc2nnc(-c3ccccc3)c(=O)[nH]2)cc1,-1.7%,-11%,-7,-9%
CCCCN1C=C(C(C)=O)C(=O)CC1,-1.7%,-4%,nt,nt
CC(=O)c1c(OC(=O)c2ccccc2)ccnc1C(F)(F)F,0.0%,-4%,nt,nt
COc1ccc(OCC(=O)OCC(=O)c2ccc(OC)c(F)c2)cc1,-1.6%,5%,nt,nt
CN(/N=C/c1cccnc1)C1=NS(=O)(=O)c2ccccc21,-4.5%,-10%,-6,-13%
CCc1ccc(C(CC(=O)O)N2Cc3ccccc3C2=O)cc1 (centres undefined),0.7%,1%,nt,-2%
CCC(=O)Nc1nc2nc(-c3ccccc3)cc(=O)n2[nH]1,-1.6%,-3%,-21,0%
CCOC(=O)N1CCN(C(=O)c2ccc(NC(C)=O)cc2)CC1,-2.2%,8%,2,-3%
CSc1ccc(/C=C/C(=O)c2ccc(NC(C)=O)cc2)cc1,?,-29%,-2,-1%
O=C(O)[C@@H]1CSC2(CCSC2)N1 (some centres undefined),nt,nt,-1,0%
Cc1cc(N/N=C/c2c[nH]c3ccccc23)c2ccccc2n1,-0.3%,-5%,6,-7%
CCc1ccc(C2CC(=O)N(c3cccc(F)c3)C3=C2C(=O)OC3)cc1 (centres undefined),-3.0%,8%,-1,1%
O=C(CN1CCN(C(=S)NC2CCCC2)CC1)Nc1ccc(Oc2ccccc2)cc1,8.2%,4%,-14,25%
COC(=O)c1ccc(NC(=O)C2CCN(C(=O)Nc3ccccc3)CC2)cc1,4.3%,2%,nt,nt
CC(=O)Nc1ccc(Cl)cc1C(=O)O,-7.3%,-10%,-1,-1%
Cc1ccc(OCCn2c3ccccc3n3nc(C)c(=O)nc23)cc1,-2.2%,16%,11,-2%
CC(=O)Nc1ccc(/C(C)=N/NS(=O)(=O)c2ccc(C)cc2)cc1,-0.4%,5%,-12,-12%
Cc1cc(C)cc(C(=O)Nn2cnnc2)c1,3.6%,6%,nt,0%
CC(C)c1nc(N2CCOCC2)c(C#N)c2c1COC(C)(C)C2,-3.0%,74%,1,-2%
O=C(CN1C(=O)NC2(CCCCC2)C1=O)Nc1ccc2c(c1)OCCCO2,3.0%,5%,nt,nt
c1ccc(N2CCN(Cc3cn4ccccc4n3)CC2)cc1,3.0%,0%,13,4%
CC(CNC(=O)COC(=O)c1cccs1)c1ccccc1 (centres undefined),2.4%,2%,nt,nt

# Given with tabs: part of the list above.
SMILES	Rango complex inh	Rango dissoc inh	GLA inh pH 4.5	miR-21 FLuc
Cc1cc(C)cc(C(=O)Nn2cnnc2)c1	3.6%	6%	nt	0%
COC(=O)c1[nH]c2ccccc2c1NC(=O)Oc1ccccc1	6.2%	-12%	-3	-22%
CC(=O)c1c(OC(=O)c2ccccc2)ccnc1C(F)(F)F	0.0%	-4%	nt	nt
Cc1cccc(NC(=O)c2cc(Cl)sc2Cl)c1C	1.8%	-5%	-1	-10%

# New compounds follow
SMILES,Rango complex inh,Rango dissoc inh,GLA inh pH 4.5,miR-21 FLuc
COc1ccccc1NC(=O)c1c(NC(=O)c2ccco2)sc2c1CCC2,?,21µM*,-3,-9%
COc1cc(C)ccc1OCc1cc(C(=O)N2CCN(C)C[C@@H]2c2ccccc2)no1,-1.8%,-5%,nt,-38%
CC(c1ccco1)N(C(=O)c1ccccc1F)c1ccccn1 (centres undefined),-2.7%,12%,-2,-6%
Cc1ccc(SCC(=O)c2c(C)[nH]c3ccccc23)cc1,0.1%,11%,2,-33%
NNC(=O)C1CCCn2c1nc1sc3c(c1c2=O)CCCC3 (centres undefined),-0.2%,-4%,1,-9%
CCC(=O)Nc1ccccc1C(=O)N1CCCC1,-0.5%,3%,5,-3%
CCn1c(=O)n(CC)c2cc(N3CCCC3)c(NC(=O)c3c(F)cccc3F)cc21,3.5%,?,nt,1%
CC(C)CCOC(=O)C(C)Sc1n[nH]c(=O)[nH]c1=O (centres undefined),-0.8%,-4%,0,-3%
COC(=O)c1c(NC(=O)COC(=O)C2CCC2)sc(C)c1C,-0.2%,1%,nt,nt
Fc1ccc(CNCc2ccccc2C(F)(F)F)cc1,-2.1%,-6%,1,-6%
Cc1ccc(OCCn2cc(C=O)c3ccccc32)cc1,0.3%,11%,nt,-3%
O=C(Cc1ccccc1)c1c[nH]c(C(=O)NCCCn2ccnc2)c1,nt,nt,2,2%
NNC(=O)c1cc(-c2ccco2)[nH]n1,-2.2%,9%,-2,3%
C/C=C/c1ccc(OC)c(OC(C)=O)c1,0.1%,1%,8,-6%
O=S(=O)(NC(=S)c1ccccc1)c1ccc(Cl)cc1,0.1%,0%,nt,0%
CC(=O)c1cccc(NS(=O)(=O)c2ccc(N/C=C\C(=O)c3ccc(C)cc3)cc2)c1,?,?,-3,-9%
CC(=O)N1c2ccccc2NC2=C(C(=O)CCC2)C1c1cccnc1 (centres undefined),-4.2%,5%,5,-1%
COc1ccccc1Nc1ncc(-c2cccs2)s1,?,1%,3,-42%
Cc1nn(-c2ccc(F)cc2)c2sc(C(=O)OCC(=O)N3CCC(C)CC3)cc12,-1.5%,5%,3,-5%
CCN(CC)C(=O)[C@H]1CC(CC(=O)NCC23CC4CC(CC(C4)C2)C3)C(=O)N2CCc3c([nH]c4ccccc34)[C@]12C (some centres undefined),0.0%,10%,nt,nt
O=C(COc1ccc([N+](=O)[O-])cc1)NCC(c1cccs1)N1CCOCC1 (centres undefined),3.5%,1%,nt,nt
CCN(CCCNC(=O)CCNC(=O)Cn1cnc2ccccc2c1=O)c1cccc(C)c1,-2.8%,-6%,1,-3%
O=C(N/N=C/c1ccc(O)cc1O)C1CC1,?,-14%,nt,nt
CC(C)c1ccc(NC(=O)c2ccc(Br)o2)cc1,-1.8%,6%,0,-44%
CCc1ccccc1NC(=O)Cn1c(=O)n(-c2ccc(CC(=O)NCC3CCCO3)cc2)c(=O)c2ccccc21 (centres undefined),-2.7%,1%,2,0%&-1%
CCn1c(SCC(=O)NCC2CCCO2)nc2c([nH]c3ccccc32)c1=O (centres undefined),-0.4%,-14%,nt,7%
Cc1ccc(C2=CSC3=NS(=O)(=O)CCN23)cc1,2.2%,-2%,-8,5%
COc1cc(C(=O)/C=C/c2cccnc2)c([N+](=O)[O-])cc1OC,6.7%,4%,nt,nt
CC(OC(=O)CNC(=O)C12CC3CC(CC(C3)C1)C2)C(=O)Nc1ccc(N2CCOCC2)cc1 (centres undefined),0.3%,7%,-1,-14%
N#Cc1ccccc1CSC1=NCCS1,-3.9%,1%,9,-12%
Cc1ccc(NC(=O)N2CCC(c3nc4c(nnn4Cc4c(F)cccc4Cl)c(=O)[nH]3)CC2)cc1,-3.1%,9%,-10,7%
Cc1ccc(N(CC(=O)NCCc2ccc(Cl)cc2)S(=O)(=O)c2c(C)noc2C)cc1,1.3%,5%,nt,0%&-1%
COc1ccccc1NS(=O)(=O)c1ccc2c(c1)OCCO2,1.4%,-3%,nt,-1%

# Compound activity (PubChem)
